AF4-AF9 inh – inhibitors of human MLL-AF4/AF9 interaction; inhibition, % at 10 µM; AID 651704; AlphaScreen, biotin-AF4 peptide binding to FLAG-AF9; 350,000 compounds, 0.47% hits;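 active = every replicate reaching a set inhibition limit, whatever the replicate mean, cut at about 25% in these data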;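 note: 0% = plate neutral control median and 100% = total signal loss; the record names both 10 and 1 µM as test concentration; the first replicate is given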
Target sequence (P42568 whole entry, looked up): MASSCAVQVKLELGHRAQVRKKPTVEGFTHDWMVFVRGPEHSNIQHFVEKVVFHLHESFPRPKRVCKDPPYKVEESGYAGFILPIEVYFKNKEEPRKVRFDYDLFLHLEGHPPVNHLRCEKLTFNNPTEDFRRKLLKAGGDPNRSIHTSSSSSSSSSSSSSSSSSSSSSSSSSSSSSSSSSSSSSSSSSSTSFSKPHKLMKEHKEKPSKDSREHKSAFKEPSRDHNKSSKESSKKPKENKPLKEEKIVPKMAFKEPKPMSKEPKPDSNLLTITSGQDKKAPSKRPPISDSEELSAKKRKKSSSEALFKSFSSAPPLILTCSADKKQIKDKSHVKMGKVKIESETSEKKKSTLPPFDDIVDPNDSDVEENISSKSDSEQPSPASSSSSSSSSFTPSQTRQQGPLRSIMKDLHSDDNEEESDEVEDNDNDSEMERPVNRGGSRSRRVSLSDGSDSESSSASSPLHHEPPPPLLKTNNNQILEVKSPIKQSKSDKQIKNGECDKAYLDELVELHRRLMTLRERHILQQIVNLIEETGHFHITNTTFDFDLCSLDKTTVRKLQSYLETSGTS
FGF22 binding – binders of recombinant human FGF22 by thermal shift | Q9HCT0 | SYPRO orange fluorescence; percent of sucrose octasulfate shift, DMSO zero | calls only at 9.99 µM | 340,000 compounds, 1.5% hits;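 active = melting point raised past a set limit in the mean and every replicate; three in four hits are not shown here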
Target sequence (Q9HCT0 whole entry, looked up): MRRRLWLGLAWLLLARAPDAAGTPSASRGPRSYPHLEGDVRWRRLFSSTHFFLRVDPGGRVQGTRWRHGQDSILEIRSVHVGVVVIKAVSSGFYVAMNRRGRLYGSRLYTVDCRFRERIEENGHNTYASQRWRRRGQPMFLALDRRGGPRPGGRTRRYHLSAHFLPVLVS
The depositor's hits bear a star; i = inactive.

SMILES	AF4-AF9 inh	FGF22 binding
CO[C@H]1CN(C)C(=O)c2cc(NC(=O)c3ccccc3)ccc2OC[C@H](C)N(C(=O)C2CC2)C[C@H]1C	1.2	i
COc1ccc(S(=O)(=O)Nc2ccc3c(c2)CC(=O)N([C@H](C)CO)C[C@H](C)[C@@H](CN(C)Cc2ccc(C(=O)Nc4ccccc4N)cc2)O3)cc1	-2.2	i
Cc1ccc(S(=O)(=O)N(C)C[C@@H]2Oc3c(NS(=O)(=O)c4ccccc4)cccc3C(=O)N([C@H](C)CO)C[C@@H]2C)cc1	-0.7	i
COc1cc(CN2CC3(CCN(S(=O)(=O)c4cccc(F)c4)CC3)c3c([nH]c4cc(OC)ccc34)[C@H]2CO)cc(OC)c1	-7.6	i
COCC(=O)Nc1ccc2c(c1)[C@@H]1C[C@@H](CC(=O)NCCN3CCCCC3)O[C@@H](CO)[C@@H]1O2	0.2	i
O=C(N1CCCCC1)[C@]1(Cc2ccccc2)N=C(c2ccc(OCCCO)cc2)O[C@@H]1c1ccccc1	6.0	i
COc1ccccc1NC(=O)N1C[C@H]2[C@@H](c3ccccc31)[C@H](CO)N2CC1CCOCC1	1.1	i
COCC(=O)N(C)C[C@H]1Oc2cc(-c3ccc(C#N)cc3)ccc2S(=O)(=O)N([C@H](C)CO)C[C@H]1C	0.6	i
CN1C(=O)c2cc(NC(=O)Nc3ccc(Cl)cc3)ccc2OC[C@H]2O[C@@H](CC(=O)NCCN3CCCCC3)CC[C@H]21	6.0	i
COc1ccc(CN(C)C[C@H]2Oc3c(NC(=O)NC4CCCCC4)cccc3C(=O)N([C@@H](C)CO)C[C@H]2C)cc1	-3.5	i
Cc1noc(C)c1S(=O)(=O)Nc1ccc2c(c1)C(=O)N([C@@H](C)CO)C[C@H](C)[C@@H](CN(C)Cc1ccc(C(=O)O)cc1)O2	-2.6	i
C[C@@H]1CCCCO[C@H](CN(C)Cc2ccccc2)[C@@H](C)CN([C@H](C)CO)C(=O)c2cc(NC(=O)Nc3ccc(C(F)(F)F)cc3)ccc2O1	-2.0	i
COc1ccc(CN(C)C[C@H]2Oc3ccc(NC(=O)Nc4c(C)noc4C)cc3C(=O)N([C@@H](C)CO)C[C@@H]2C)cc1	-1.7	i
Cc1noc(C)c1S(=O)(=O)Nc1ccc2c(c1)C(=O)N([C@@H](C)CO)C[C@@H](C)[C@@H](CN(C)C(=O)Nc1ccccc1)OCCCC[C@@H](C)O2	-2.5	i
Cc1ccc(S(=O)(=O)Nc2ccc3c(c2)C(=O)N([C@H](C)CO)C[C@H](C)[C@@H](CN(C)C(=O)NC(C)C)OCCCC[C@@H](C)O3)cc1	0.4	i
C[C@H](CO)N1C[C@H](C)[C@H](CN(C)S(C)(=O)=O)Oc2ccc(NC(=O)Cc3ccccc3)cc2CC1=O	-0.6	i
CCS(=O)(=O)N[C@H]1C=C[C@@H](CC(=O)Nc2ccc(-c3ccccc3)cc2)O[C@@H]1CO	0.5	i
CN1C(=O)c2cc(NC(=O)C3CC3)ccc2OC[C@@H]2O[C@@H](CC(=O)NCCN3CCCC3)CC[C@@H]21	0.1	i
CC(C)NC(=O)Nc1ccc2c(c1)C(=O)N([C@@H](C)CO)C[C@H](C)[C@H](CN(C)C(=O)CCC(F)(F)F)OCCCC[C@H](C)O2	0.2	i
Cc1noc(C)c1NC(=O)Nc1ccc2c(c1)C(=O)N([C@@H](C)CO)C[C@H](C)[C@H](CN(C)S(=O)(=O)c1cn(C)cn1)OCCCC[C@@H](C)O2	-4.8	i
O=C(N[C@H]1CC[C@@H](CCn2cc(-c3ccccc3)nn2)O[C@@H]1CO)c1ccccc1F	0.6	i
C[C@H]1CCCCO[C@H](CN(C)C(=O)C2CCCCC2)[C@@H](C)CN([C@@H](C)CO)C(=O)c2cc(NS(=O)(=O)c3ccccc3)ccc2O1	2.8	i
COc1ccc(CN(C)C[C@H]2Oc3ccc(NC(=O)Nc4c(C)noc4C)cc3CC(=O)N([C@@H](C)CO)C[C@H]2C)cc1	-1.2	i
N[C@@H]1CC[C@@H](CCn2cc(-c3ccccn3)nn2)O[C@H]1CO	0.0	i
C[C@@H]1CCCCO[C@@H](CN(C)C(=O)Nc2ccccc2)[C@H](C)CN([C@H](C)CO)C(=O)c2cc(NC(=O)Cc3ccccc3)ccc2O1	1.5	i
SMILES	AF4-AF9 inh	FGF22 binding
C[C@@H]1CCCCO[C@@H](CN(C)CC2CCCCC2)[C@@H](C)CN([C@H](C)CO)C(=O)c2cc(NC(=O)C3CCCCC3)ccc2O1	-6.8	i
COc1ccc(NC(=O)N2CCC3(CC2)CN(C(=O)CN2CCOCC2)[C@H](CO)c2[nH]c4cc(OC)ccc4c23)cc1	-2.2	i
CCCC#Cc1ccc2c(c1)O[C@H](CN(C)Cc1ccncc1)[C@@H](C)CN([C@H](C)CO)S2(=O)=O	4.9	i
Cc1noc(C)c1S(=O)(=O)N(C)C[C@H]1Oc2ccc(NS(=O)(=O)c3ccccc3)cc2C(=O)N([C@@H](C)CO)C[C@H]1C	2.1	i
CC(C)NC(=O)N1[C@@H](CO)[C@@H](c2ccccc2)C12CN(C(=O)CN(C)C)C2	0.0	i
CN(C)CCCNC(=O)C[C@H]1CC[C@@H]2[C@H](COC[C@H](O)CN2Cc2cc(F)cc(F)c2)O1	-13	i
O=C(C[C@H]1CC[C@@H]2[C@H](COC[C@@H](O)CN2C(=O)Nc2ccc(Cl)c(Cl)c2)O1)NCc1ccncc1	2.8	i
C[C@@H]1CCCCO[C@H](CN(C)C(=O)Nc2ccc(F)cc2)[C@H](C)CN([C@H](C)CO)C(=O)c2cc(NC(=O)c3ccccc3)ccc2O1	1.6	i
C[C@H]1CN([C@@H](C)CO)C(=O)c2cc(NC(=O)Cc3cn(C)c4ccccc34)ccc2O[C@H]1CN(C)C(=O)NC1CCCCC1	-1.1	i
CC(C)NC(=O)Nc1ccc2c(c1)C(=O)N([C@H](C)CO)C[C@@H](C)[C@@H](CN(C)S(=O)(=O)c1cn(C)cn1)O2	-3.7	i
COc1ccc2c3c(n(C)c2c1)[C@@H](CO)N(C(=O)c1ccccn1)CC31CN(C(C)=O)C1	-0.6	i
C[C@@H]1CN([C@H](C)CO)C(=O)c2cccc(N(C)C)c2O[C@@H]1CN(C)S(C)(=O)=O	-0.1	i
O=C(Nc1cccc(F)c1)N1CCCCN2[C@H](CO)[C@H](c3ccc(C#CC4CC4)cc3)[C@H]2C1	18	i
COc1ccc(S(=O)(=O)N(C)C[C@@H]2Oc3ncccc3C(=O)N([C@H](C)CO)C[C@@H]2C)cc1	-4.6	i
Cc1ccc(S(=O)(=O)Nc2ccc3c(c2)C(=O)N([C@H](C)CO)C[C@H](C)[C@@H](CN(C)C(=O)Nc2ccc(C(F)(F)F)cc2)OCCCC[C@H](C)O3)cc1	-3.2	i
COc1ccc(S(=O)(=O)Nc2ccc3c(c2)CC(=O)N([C@@H](C)CO)C[C@H](C)[C@@H](CN(C)Cc2ccc(Cl)c(Cl)c2)O3)cc1	-1.4	i
C[C@H]1CN([C@@H](C)CO)C(=O)c2cc(-c3ccc(F)cc3)cnc2O[C@H]1CN(C)C(=O)Cc1ccccc1	1.4	i
COc1ccc(S(=O)(=O)N(C)C[C@H]2OCCCC[C@@H](C)Oc3ccc(N(C)C)cc3C(=O)N([C@@H](C)CO)C[C@@H]2C)cc1	8.8	i
CCC(=O)N(C)C[C@H]1Oc2cc(-c3ccc(C#N)cc3)ccc2S(=O)(=O)N([C@@H](C)CO)C[C@H]1C	-0.4	i
COc1cccc(S(=O)(=O)Nc2ccc3c(c2)[C@@H]2C[C@H](CC(=O)NCc4cccc(F)c4)O[C@H](CO)[C@@H]2O3)c1	3.4	i
O=C(C[C@@H]1CC[C@@H]2[C@H](COC[C@H](O)CN2C(=O)c2ccncc2)O1)NCc1cc(F)cc(F)c1	-12	i
C[C@H]1CN([C@@H](C)CO)C(=O)c2cc(C#CCc3ccccc3)cnc2O[C@H]1CN(C)Cc1cccc(C(=O)O)c1	-2.6	i
C[C@@H]1CN([C@H](C)CO)C(=O)c2cc(NC(=O)Nc3ccc(C(F)(F)F)cc3)ccc2O[C@H]1CN(C)Cc1ccc(C(F)(F)F)cc1	-2.1	i
COCCNC(=O)C[C@H]1CC[C@H]2[C@H](COc3ccc(NC(=O)Nc4cccc(F)c4)cc3C(=O)N2C)O1	-1.9	i
O=S(=O)(c1ccc(F)cc1)N1CCCc2nc(-c3ccc(F)cc3)ccc21	-7.6	i

Random excerpt: 5 compounds from above.
SMILES	AF4-AF9 inh	FGF22 binding
CC(C)NC(=O)Nc1ccc2c(c1)C(=O)N([C@H](C)CO)C[C@@H](C)[C@@H](CN(C)S(=O)(=O)c1cn(C)cn1)O2	-3.7	i
COc1cc(CN2CC3(CCN(S(=O)(=O)c4cccc(F)c4)CC3)c3c([nH]c4cc(OC)ccc34)[C@H]2CO)cc(OC)c1	-7.6	i
COc1cccc(S(=O)(=O)Nc2ccc3c(c2)[C@@H]2C[C@H](CC(=O)NCc4cccc(F)c4)O[C@H](CO)[C@@H]2O3)c1	3.4	i
O=S(=O)(c1ccc(F)cc1)N1CCCc2nc(-c3ccc(F)cc3)ccc21	-7.6	i
COc1ccc2c3c(n(C)c2c1)[C@@H](CO)N(C(=O)c1ccccn1)CC31CN(C(C)=O)C1	-0.6	i

Continuation:
SMILES	AF4-AF9 inh	FGF22 binding
COCC(=O)Nc1ccc2c(c1)[C@@H]1C[C@H](CC(=O)NCc3ccncc3)O[C@@H](CO)[C@@H]1O2	-5.0	i
O=C(c1ccccc1)N1C[C@H]2[C@@H](c3ccccc31)[C@@H](CO)N2C(=O)CN1CCOCC1	-1.1	i
CC(C)CC#Cc1cnc2c(c1)C(=O)N([C@@H](C)CO)C[C@H](C)[C@@H](CN(C)Cc1ccc(C(=O)O)cc1)O2	-1.8	i
C[C@H](CO)N1C[C@H](C)[C@H](CN(C)C(=O)Nc2ccccc2)OCCCC[C@H](C)Oc2ccc(NS(=O)(=O)c3cccs3)cc2C1=O	1.8	i
O=C(C[C@@H]1CC[C@H]2NC[C@H](O)COC[C@@H]2O1)N1CCc2ccccc2C1	-20	i
N#C[C@H]1[C@H](c2ccccc2)[C@H](CO)N1C(=O)C1CCCC1	-1.9	i
COc1ccc2c3c([nH]c2c1)[C@H](CO)N(Cc1ccccc1Cl)CC31CCN(C(C)=O)CC1	-1.4	i
C[C@H]1CCCCO[C@H](CN(C)S(=O)(=O)c2cn(C)cn2)[C@@H](C)CN([C@@H](C)CO)C(=O)c2cc(NC(=O)NC3CCCCC3)ccc2O1	-3.4	i
Cc1cc(NN=Cc2ccccn2)nc2ccccc12	18	i
CN1C[C@H]2[C@@H](c3ccccc31)[C@H](CO)N2C(=O)Nc1cccc(F)c1	0.4	i
C/C=C/c1cnc2c(c1)C(=O)N([C@H](C)CO)C[C@H](C)[C@@H](CN(C)Cc1cccc(C(=O)O)c1)O2	-3.5	i
COCC#Cc1ccc2c(c1)O[C@@H](CN(C)S(C)(=O)=O)[C@@H](C)CN([C@H](C)CO)S2(=O)=O	-1.7	i
COc1ccc2c3c(n(C)c2c1)[C@@H](CO)N(CC1CC1)CC31CCN(C(=O)CC2CC2)CC1	0.1	i
CCCNC(=O)N1CC2(C1)CN(C(=O)c1cccnc1)[C@@H](CO)c1[nH]c3cc(OC)ccc3c12	-1.2	i
C[C@@H]1CN([C@H](C)CO)C(=O)Cc2cc(NS(C)(=O)=O)ccc2O[C@@H]1CN(C)S(=O)(=O)c1ccccc1	-0.7	i
COc1cccc(-c2ccc3c(c2)O[C@@H](CN(C)Cc2cccnc2)[C@@H](C)CN([C@@H](C)CO)S3(=O)=O)c1	4.9	i
O=C(C[C@H]1C[C@H]2c3cc(NS(=O)(=O)c4ccc(F)cc4)ccc3O[C@H]2[C@@H](CO)O1)NCc1cccnc1	1.1	i
COc1ccc(C#Cc2ccc3c(c2)O[C@H](CN(C)C(=O)NC2CCCCC2)[C@@H](C)CN([C@H](C)CO)S3(=O)=O)cc1	-13	i
CCCC#Cc1cnc2c(c1)C(=O)N([C@H](C)CO)C[C@H](C)[C@H](CN(C)C(=O)Nc1cc(F)ccc1F)O2	-1.1	i
C[C@H](CO)N1C[C@H](C)[C@@H](CN(C)C(=O)Cc2ccccc2)OCc2ccccc2-c2c(n(C)c3ccccc23)C1=O	1.2	i
C[C@H]1CN([C@@H](C)CO)C(=O)Cc2cc(NC(=O)CCN3CCOCC3)ccc2O[C@@H]1CN(C)S(=O)(=O)c1cn(C)cn1	-7.3	i
O=C(C[C@@H]1CC[C@H](NC(=O)c2cnccn2)[C@H](CO)O1)NCc1ccccc1F	-0.7	i
C[C@@H]1CN([C@@H](C)CO)C(=O)c2cccc(NS(=O)(=O)c3ccccc3)c2O[C@H]1CN(C)S(=O)(=O)c1cn(C)cn1	-14	i
COc1ccc(S(=O)(=O)N[C@@H]2CC[C@@H](CC(=O)NCCc3ccccc3)O[C@@H]2CO)cc1	-2.9	i
COCC(=O)Nc1ccc2c(c1)OC[C@@H](C)N(Cc1ccccc1F)C[C@H](C)[C@H](OC)CN(C)C2=O	3.0	i
C[C@@H]1CN([C@H](C)CO)S(=O)(=O)c2ccc(C#C[C@@H](C)O)cc2O[C@@H]1CN(C)C(=O)C1CCCCC1	0.6	i

Looked up above.
COc1cccc(-c2ccc3c(c2)O[C@@H](CN(C)Cc2cccnc2)[C@@H](C)CN([C@@H](C)CO)S3(=O)=O)c1 in AF4-AF9 inh → 4.9
O=C(C[C@@H]1CC[C@H](NC(=O)c2cnccn2)[C@H](CO)O1)NCc1ccccc1F in AF4-AF9 inh → -0.7

Source: PubChem (Broad Institute)

This is a subset (hit frequency here may not be typical).
